Screens deposited in PubChem BioAssay by several laboratories.
Rce1 inh = blocks yeast Ras-converting enzyme. Q03530. yeast membranes, quenched prenylated peptide cleavage fluorescence. calls only. 0.27% of 290,000 active. AID 2563;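 active means fall in fluorescence gain of 50% or more versus controls, with final raw signal at or below 3038400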;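 further: plate controls were neutral control wells for no effect and wells lacking membranes for full effect; tested at 10 µM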
CSC inhib = cancer stem cell inhibition; cancer stem cell-like cells viability, luminescence; AID 2717; inhibition, % at 7.5 µM; 1.1% of 300,000 active;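 active means mean at 75% or more and at least half the replicates too; tested in HMLE shEcad cells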;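 further: 0% = median of negative and 100% = median of positive control wells; the first replicate is given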
UUG fidelity = modulators of start codon recognition fidelity in yeast | S. cerevisiae UUG-firefly luciferase reporter, luminescence/redox ratio | AID 602363 | activity score, % at 18.7 µM | 0.13% of 350,000 active;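 active means replicate mean at a twofold rise or more, about +100% in these data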;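 further: firefly luciferase made from a UUG start codon reports start codon fidelity; reporter light over untreated wells divided by growth signal over untreated wells; some hits fall short of that in this replicate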
Env fusion inh = blocks HIV Env-driven cell-cell fusion; HeLa-JRFL Env/CEM21 cell fusion, luciferase; inhibition, % at 12.3 µM; 1.1% of 360,000 active; AID 651610;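 active means mean replicate inhibition score of at least 50 and every replicate individually at or above 50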;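 further: 0% = plate neutral controls and 100% = maraviroc near 300 nM; one replicate is shown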
eIF4H inh = inhibitors of RNA binding by human eIF4H; Q15056; eIF4H fluorescence polarization binding assay; inhibition, % at 35 µM; 0.94% of 290,000 active; AID 2012;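 active means 50% or more with normal probe brightness, or confirmed in later tests; about a fifth of its hits are not listed in these tables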;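 further: calls also rest on retests at 20 µM and on dose response follow-up; 0% = protein and probe with vehicle and 100% = probe without protein; strong numbers were not always called active; many hits fall short of the cut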
PABP polyA inh = blocks human PABP binding to poly(A) RNA | fluorescence polarization | inhibition, % at 35 µM | 1% of 290,000 active;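 active means 50% or more with normal probe brightness, or confirmed in later tests; about a fifth of its hits are not listed in these tables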;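 further: calls also rest on retests at 20 µM and on dose response follow-up; controls were probe without protein and protein plus probe with vehicle; some compounds called inactive have numbers as strong as hits; many hits fall short of the cut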
Target sequence (P11940 whole entry, looked up): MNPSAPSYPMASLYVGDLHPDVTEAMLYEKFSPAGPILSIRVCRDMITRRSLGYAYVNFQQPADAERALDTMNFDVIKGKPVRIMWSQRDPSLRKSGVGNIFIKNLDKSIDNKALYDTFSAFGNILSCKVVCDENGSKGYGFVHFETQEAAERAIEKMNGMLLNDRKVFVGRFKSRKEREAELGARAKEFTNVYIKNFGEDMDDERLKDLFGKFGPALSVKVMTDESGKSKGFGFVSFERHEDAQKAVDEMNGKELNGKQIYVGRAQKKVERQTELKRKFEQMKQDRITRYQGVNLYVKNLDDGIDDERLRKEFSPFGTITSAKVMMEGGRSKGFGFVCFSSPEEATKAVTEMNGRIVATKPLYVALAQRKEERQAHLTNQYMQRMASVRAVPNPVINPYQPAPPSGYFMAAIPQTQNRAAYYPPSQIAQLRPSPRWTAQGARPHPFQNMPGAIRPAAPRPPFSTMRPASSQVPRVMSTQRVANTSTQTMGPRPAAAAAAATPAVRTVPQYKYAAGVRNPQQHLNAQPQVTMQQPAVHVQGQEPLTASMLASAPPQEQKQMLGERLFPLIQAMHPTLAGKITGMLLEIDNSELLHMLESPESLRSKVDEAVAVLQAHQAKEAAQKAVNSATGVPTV
MT1-MMP act inh = MT1-MMP (human) activation inhibition. P50281. GFP/RFP ratio change, % at 20 µM. HT1080 RFP-PRO-GFP cells, GFP/RFP ratio fluorescence, overnight; percent of plate control window, DMSO zero. AID 651647. 0.061% of 360,000 active;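 active means GFP/RFP ratio change of at least 30% with cell ATP level not reduced by more than half and red fluorescence within 50% of control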; further: strong numbers were not always called active
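Material: RFP-PRO-GFP reporter HT1080 cells. Dosing: single-point 20 µM compound, 1% DMSO. Controls: DMSO and RFP-L50D-GFP cell wells. Timing: cells overnight before dosing, compound overnight, 37 °C, 5% CO2. Measure: GFP/RFP fluorescence ratio.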
eIF4H inh retest = second read-out of eIF4H inh, no call of its own (marks repeat the call); inhibition, %; compound at 20 µM; confirmation average;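 mean of two retest wells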
PABP polyA inh retest = recorded beside PABP polyA inh, whose call it bears; inhibition, %; compound at 20 µM; confirmation repeats;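 mean of two retest wells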
MT1-MMP act inh RFP = recorded beside MT1-MMP act inh, whose call it bears; RFP signal change, %; measured here: RFP expression control read;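 0 = vehicle wells; hits needed this value within 50% of zero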
The depositor's hits bear a star; i = inactive; · = not tested or not shown; & = joins results of further samples. Not all compounds are listed; the hit share may differ from the screen's.

The opening four compounds as a preview:
SMILES	Rce1 inh	CSC inhib	UUG fidelity	Env fusion inh	eIF4H inh	PABP polyA inh	MT1-MMP act inh	MT1-MMP act inh RFP	others
COc1cccc(CN(C)Cc2nc(Cc3ccccc3Cl)no2)c1	i	-17	·	1	-2	4	1	4
CCN(CC)C(=O)N1CCc2ccccc21	i	0	·	-4	-2	6	0	8
Cc1ccc(NC(=O)CCN2C(=O)c3ccccc3C2=O)cc1C	i	-5	2	·	-6	-7	1	3
Cc1nn(Cc2c(F)c(F)c(F)c(F)c2F)c(C)c1NC(=O)c1c(-c2ccccc2)nn(-c2ccccc2)c1C	i	-10	-8	95*	-3	-6	6	-6

All compounds of this part, previewed entries included:
SMILES	Rce1 inh	CSC inhib	UUG fidelity	Env fusion inh	eIF4H inh	PABP polyA inh	MT1-MMP act inh	MT1-MMP act inh RFP	others
COc1cccc(CN(C)Cc2nc(Cc3ccccc3Cl)no2)c1	i	-17	·	1	-2	4	1	4
CCN(CC)C(=O)N1CCc2ccccc21	i	0	·	-4	-2	6	0	8
Cc1ccc(NC(=O)CCN2C(=O)c3ccccc3C2=O)cc1C	i	-5	2	·	-6	-7	1	3
Cc1nn(Cc2c(F)c(F)c(F)c(F)c2F)c(C)c1NC(=O)c1c(-c2ccccc2)nn(-c2ccccc2)c1C	i	-10	-8	95*	-3	-6	6	-6
Cc1ccc(O)c(NC(=O)c2ccc3c(c2)C(=O)N(Cc2ccco2)C3=O)c1	i	5	1	6	8	13	7	4
CC1(C)Cc2c(C#N)c(SCCOc3ccccc3)nc(N3CCOCC3)c2CO1	i	46	-14	34	-2	7	-5	-12
Cc1cccc(C)c1NC(=O)COc1cccc(/C=N/NC(=O)C(=O)NCc2ccccc2)c1	i	-13	-4	·	0	0	9	5
COc1ccc(OC)c(NC(=O)CCCC(=O)NC2CCCCC2)c1	i	-12	5	5	5	4	0	5
COc1cc(CC(NC(C)=O)C(=O)NC2CCN(C(=O)Nc3ccccc3C)CC2)cc(OC)c1 (centres undefined)	i	-7	-8	2	-2	2	3	5
CCOC(=S)SCC(=O)Nc1nc(C)c(C)s1	i	25	-24	-8	-6	-2	-3	4
COc1ccc(S(=O)(=O)N2CCOCC2)cc1NC(=O)Cc1c(Cl)cccc1Cl	i	-15	7	-1	-2	-12	8	4
CC(=O)c1cnc2nc(SCc3cccc(C)c3)nn2c1C	i	4	-4	-1	10	9	2	0
O=C(NCc1ccccc1)C1CCC(=O)N(CC2CCCCC2)C1 (centres undefined)	i	-14	-12	5	·	·	2	1
CCN(CC)c1ccc(N=Cc2c(C)[nH]c3ccccc23)cc1	i	9	·	1	9	2	52	58
CCCSc1nc2c(cnn2-c2ccc(C)c(C)c2)c(=O)[nH]1	i	0	-1	11	-3	-11	-1	5
O=C1C(=O)N(Cc2ccccc2)C(=O)N1CCN1C(=O)c2ccccc2C1=O	i	·	·	-6	-1	-14	-2	0
O=C(NC(=O)c1ccccc1)Nc1cccc(S(=O)(=O)N2CCCCC2)c1	i	-5	-11	1	-9	2	-4	-1
Cc1cccc(OC(C)C(=O)Nc2nc(-c3ccncc3)cs2)c1 (centres undefined)	·	·	-3	2	·	·	1	-4
c1ccc(-n2nnnc2SCCCSc2nc3ccccc3s2)cc1	i	0	-11	·	84	1	0	-2	eIF4H inh retest=4;PABP polyA inh retest=2
COc1ccc(/C=N/NC(=S)Nc2ccccc2)cc1	i	-9	·	-71	8	1	-2	4
COc1cccc(C(=O)CC(=O)C(=O)Nc2cc(OC)ccc2OC)c1	i	-15	·	-74	20	12	3	3
CCN(CC)c1ccc(C(=O)OCC(=O)Nc2ccc3[nH]c(=O)[nH]c3c2)cc1	i	4	·	13	43	10	-2	-3
COc1ccc(-c2cc(C(=O)N(C)CC(=O)Nc3cccc(F)c3)c3ccccc3n2)cc1OC	·	·	-11	31	·	·	-1	3
CN(c1ccc(C(=O)Nc2ccccc2C(=O)N2CCCC2)cc1)S(C)(=O)=O	i	2	-6	·	7	8	1	0
CCOc1ccccc1CNC(=O)CCCC(=O)n1nc(C)c2ccccc21	i	2	2	6	-7	-2	1	3
COc1ccccc1C(=O)NCC(=O)Nc1ccccc1	i	·	-18	·	0	-6	-1	3
CCC(=O)N(Cc1cc2ccc(C)cc2[nH]c1=O)c1ccccc1OC	i	-31	-3	-5	-3	4	-3	-1
O=[N+]([O-])c1cc(S(=O)(=O)N2CCCC2)ccc1N/N=C/c1ccccn1	i	·	·	20	6	7	-3	0
CCOC(=O)N1CCN(CC(O)COc2ccccc2C(C)C)CC1 (centres undefined)	i	-9	-14	·	0	-3	1	3
CCCC12CN3CC(C)(CN(C1)C31C(=O)Nc3ccc(C)cc31)C2=O (centres undefined)	i	0	-17	·	-3	-10	5	5
O=C(C1CCN(S(=O)(=O)N2CCC3(CC2)OCCO3)CC1)N1CCc2ccccc2C1	i	-2	-15	·	-13	-5	3	-2
COc1ccc([N+](=O)[O-])cc1N(CC(=O)Nc1ccccc1C(=O)N1CCCC1)S(C)(=O)=O	i	4	·	14	-4	-6	2	3
Cc1ccc(S(=O)(=O)N2CCN(C(=O)CCC(=O)NCc3ccc(F)cc3)CC2)cc1	i	11	-3	·	0	16	4	3
Cc1cc(C)n(Cc2n[nH]c(=S)n2Cc2ccccc2)n1	i	-3	-5	·	-22	-6	2	3
CCCS(=O)(=O)Nc1cccc(-c2cn3c(n2)SCC3)c1	i	-17	-20	-9	10	4	0	1
CCc1cccc(CC)c1NC(=S)Nc1ccccc1	i	-24	·	-4	9	-2	2	4
COc1cccc(C(=O)NC2CCCN(C3Cc4ccccc4C3)C2)c1OC (centres undefined)	i	1	4	-3	-10	3	-2	0
CCCCCC(/C=N/Nc1ccc(S(=O)(=O)N2CCOCC2)cc1[N+](=O)[O-])=C\c1ccccc1	i	-7	-7	-32	-5	-3	-3	-14
Cc1nnc(SCCN2C(=O)c3ccccc3C2=O)nc1C	i	0	-1	-18	·	·	0	4
O=C(Nc1ccc2c(c1)OCCO2)c1cncc(Br)c1	i	15	-37	-83	-6	-8	-4	1

Brought forward from above: 3 compounds; new compounds follow.
SMILES	Rce1 inh	CSC inhib	UUG fidelity	Env fusion inh	eIF4H inh	PABP polyA inh	MT1-MMP act inh	MT1-MMP act inh RFP	others
CCCCCC(/C=N/Nc1ccc(S(=O)(=O)N2CCOCC2)cc1[N+](=O)[O-])=C\c1ccccc1	i	-7	-7	-32	-5	-3	-3	-14
Cc1nnc(SCCN2C(=O)c3ccccc3C2=O)nc1C	i	0	-1	-18	·	·	0	4
O=C(Nc1ccc2c(c1)OCCO2)c1cncc(Br)c1	i	15	-37	-83	-6	-8	-4	1
Cc1nn(C)c(C)c1NC(=O)c1ccc(Br)o1	i	·	-23	1	8	-14	0	4
C1=C\CCC2(OCCO2)C2(CC/1)OCCO2	·	·	-6	-18	·	·	2	7
COc1ccc(-c2ccc(C(=O)Nc3cccc(NS(C)(=O)=O)c3)c3occc23)c(C)c1	·	·	-11	20	·	·	-4	-17
COc1cccc(C2=NOC(C(=O)NCc3ccco3)C2)c1 (centres undefined)	i	50	10	-5	-2	-22	3	2
COc1ccccc1Nc1nc(NCC(C)C)nc(N)c1[N+](=O)[O-]	i	24	·	27	31	14	-14	-12
CCOC(=O)c1[nH]c2ccc(OC)cc2c1NC(=O)N1CCOCC1	i	-11	-15	·	8	-6	2	-2
O=C(c1ccccc1)c1cc([N+](=O)[O-])ccc1N1CCCC1	i	32	·	28	5	-5	7	-7
Cc1cc2ncn(-c3ncccc3[N+](=O)[O-])c2cc1C	i	-27	-20	-11	-10	8	-11	-3
CCN(CC)S(=O)(=O)c1ccc(C)c(C)c1	i	0	-17	-58	-8	1	1	1
CNC[C@H]1OCCCC[C@H](C)Oc2ccc(NC(=O)CCCN(C)C)cc2C(=O)N([C@H](C)CO)C[C@@H]1C	·	·	6&-8	4	·	·	-2	3
Cc1cccc(C)c1NC(=S)N(Cc1ccccc1)Cc1cccnc1	i	-18	·	-8	6	-5	-4	-1
CC1(C(=O)NS(=O)(=O)c2cccc(Cl)c2)CCN1C(=O)COc1ccc(Cl)cc1 (centres undefined)	·	·	-16	11	·	·	-2	2
COC(=O)c1cc(=O)nc2sccn12	i	-1	5	27	-10	-5	4	3
CCCCCOC(=O)CCN1C(=O)/C(=C2\SC(=S)N(CCC(=O)OCCCCC)C2=O)SC1=S	i	1	-9	8	-3	11	27	53
